Screening results as filed in PubChem.
GALR2 ag = GALR2 receptor agonists, primary screen, cell-based | activation, %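 (tested at 5 µM)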 | 140,000 compounds, 0.48% hits | GALR2-expressing cells, agonist activation read-out | Galanin receptor type 2 (Homo sapiens), O43603;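 active means above mean plus 3 SD of all compounds, about 5% in these data, not always enough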;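 further: 0% = vehicle buffer wells and 100% = reference agonist at full effect; tested in CHO reporter cells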
HSV replic up = enhancers of HSV replication in host cells, fold increase, host cell viability. HSV replication augmentation in cells. maximum fold increase. 220,000 compounds, 0.005% hits. AID 1956, 2009;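 active means peak rise of 1.5-fold or more in the series; inconclusive means self-fluorescent or not available for retest; tested in PC3 cells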;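 further: first round at 10 µM; read as green reporter fluorescence; hits show the peak of a series up to 25 µM; 1 = signal of infected wells without compound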
INS promoter inh = inhibitors of insulin promoter-driven GFP, primary screen, imaging, TRM-6 cells (human fetal islet line), eGFP reporter, cell count | 130,000 compounds, 0.9% hits | AID 1273, 2008 | inhibition, % at 2 µM | reporter expression induced with tamoxifen;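 active means inhibition above the mean plus 3 SD, with well images judged a real hit on visual review, cut at about 60% in these data, passing the limit was not always enough; inconclusive means inhibition over the cutoff but images rejected on review; inactive means inhibition not above the cutoff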
PKD1 kinase inh = inhibitors of human PKD1 kinase, biochemical, fluorescence polarization; Serine/threonine-protein kinase D1 (Homo sapiens), Q15139; PKD1 kinase fluorescence polarization assay; inhibition, %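 (about 10 µM by stock and volumes)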; 200,000 compounds, 0.056% hits; AID 797, 2007;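 active means inhibition of 50% or more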;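 further: controls were vehicle for no effect and a reference inhibitor for full effect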
Target sequence (Q15139 whole entry, looked up): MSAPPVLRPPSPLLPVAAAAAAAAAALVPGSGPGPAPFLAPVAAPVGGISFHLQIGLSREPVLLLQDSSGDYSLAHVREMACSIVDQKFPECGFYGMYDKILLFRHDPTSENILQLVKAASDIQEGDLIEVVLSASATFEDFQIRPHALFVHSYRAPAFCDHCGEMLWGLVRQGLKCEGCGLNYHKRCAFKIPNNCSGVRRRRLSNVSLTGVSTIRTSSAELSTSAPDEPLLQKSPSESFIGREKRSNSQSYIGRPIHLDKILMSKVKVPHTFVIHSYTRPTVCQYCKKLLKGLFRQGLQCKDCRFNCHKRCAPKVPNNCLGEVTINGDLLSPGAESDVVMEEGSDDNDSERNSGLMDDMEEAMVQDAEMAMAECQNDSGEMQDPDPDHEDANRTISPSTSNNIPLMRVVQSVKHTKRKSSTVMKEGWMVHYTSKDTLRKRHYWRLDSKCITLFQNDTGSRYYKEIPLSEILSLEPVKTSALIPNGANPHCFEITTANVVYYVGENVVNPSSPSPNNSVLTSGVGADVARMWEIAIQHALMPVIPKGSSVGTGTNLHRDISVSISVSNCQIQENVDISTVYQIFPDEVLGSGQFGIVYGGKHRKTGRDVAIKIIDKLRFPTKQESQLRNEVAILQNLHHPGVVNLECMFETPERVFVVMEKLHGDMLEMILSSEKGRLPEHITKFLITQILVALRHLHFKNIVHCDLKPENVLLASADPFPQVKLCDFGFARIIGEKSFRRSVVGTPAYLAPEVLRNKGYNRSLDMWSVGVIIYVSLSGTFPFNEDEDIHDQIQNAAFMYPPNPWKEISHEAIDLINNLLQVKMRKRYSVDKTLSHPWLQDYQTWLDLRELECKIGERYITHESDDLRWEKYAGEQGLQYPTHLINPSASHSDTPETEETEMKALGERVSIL
RGS16-Gao = modulators of RGS16 binding to Galphao, primary screen, biochemical, human proteins, multiplexed bead flow cytometry; binding response (% of control), % at 10 µM; Regulator of G-protein signaling 16 (Homo sapiens) + Guanine nucleotide-binding protein …; 220,000 compounds, 0.38% hits; bead-based flow cytometry RGS16-Galphao binding, fluorescence; actives lie on both sides;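 active means below 25% or above 175%, edge rows of some plates excepted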;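 further: Galphao activated by GDP with aluminum fluoride before binding; 100% = wells without compound and 0% = beads without RGS; some results beyond the cut were filed as inactive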
INS promoter inh cell count = also measured in INS promoter inh; calls as there; normalized cell count, %; measured here: cell count, toxicity; reference of the scale not given here;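 cells exposed to compound for 48 h; stained nuclei by imaging scaled within each plate; lower means fewer cells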
HSV replic up primary fold = recorded beside HSV replic up, whose call it bears; fold increase; compound at 10 µM; measured here: primary screen fold increase 10 uM; tested in PC3 cells;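 GFP signal in the first replicate; 1 = infected wells without compound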
Numbers without * were called inactive; i = inactive; ? = inconclusive; / = not tested or not shown.

Structure	GALR2 ag	HSV replic up	HSV replic up primary fold	INS promoter inh	INS promoter inh cell count	PKD1 kinase inh	RGS16-Gao
CC(/C=N/NC(=O)c1cc(-c2ccc(Cl)cc2)nc2ccccc12)=C\c1ccco1	3.4	i	0.55	-35.1	124.2	4.9	90.0
Cc1ccc(S(=O)(=O)N[C@@H](C)C(=O)N2CCC(C(=O)N3CCC[C@H]3C(=O)O)CC2)cc1	-2.4	i	0.963	50.0	161.2	-1.2	98.1
O=C(N/N=C/c1c[nH]c2ccccc12)c1cc2ccccc2o1	/	i	0.81	/	/	/	101.7
N=c1n(CCCOc2ccc(Br)cc2)c2ccccc2n1CC(N)=O	/	i	0.66	/	/	/	98.2
COc1cccc(C(=O)N2CCN(c3ncccn3)CC2)c1	-2.2	i	0.86	/	/	-19.2	104.1
CCOC(=O)C1CCN(c2ccc(C(N)=O)cc2[N+](=O)[O-])CC1	-1.2	i	0.84	/	/	10.3	102.1
CC(O)(C#CCN1CCOCC1)c1ccccc1 (stereo not given)	-3.3	/	/	40.0	71.1	-9.2	95.9
CCCCCCOc1ccc(C(CC(=O)O)C(N)=O)cc1 (stereo not given)	0.1	i	0.93	/	/	2.0	91.3
Cc1ccc2nc(-c3ccc(-c4ccccn4)s3)cn2c1	/	i	0.89	/	/	/	100.8
CN(Cc1ccccc1)Cc1nc2c(c(=O)n(C)c(=O)n2C)n1Cc1ccc(F)cc1	-1.5	i	0.92	/	/	-2.9	95.4
CC(C)c1cc(N=NC(N)=O)cc(C(C)C)c1O	/	i	0.83	4.8	122.2	-7.0	116.9
COc1cc(OC)cc(C(=O)NCC(=O)OCC(=O)c2cc(OC)ccc2OC)c1	-1.6	i	0.93	43.8	117.5	-4.4	100.9
CC(C)CNC(=O)N1c2ccccc2Sc2ccccc21	/	i	1.07	/	/	/	83.8
CCCCCC(=O)Nc1cccc(C2=NOC3(C2)C[C@@H](C(N)=O)N(C(=O)c2ccc(Cl)cc2)C3)c1 (stereo not given in full)	/	i	0.89	/	/	/	111.4
CC(C)(C)NC(=O)COC(=O)c1ccccc1C(=O)c1ccccc1	/	i	0.91	/	/	-9.5	99.0
O=C(C[n+]1cccc(NC(=O)c2ccccc2)c1)c1ccc(NC(=O)c2ccccc2)cc1	-2.2	/	/	/	/	3.1	100.9
O=C(Nc1ccccc1)C1=C[C@@H](c2ccc(Br)cc2)C[C@@H](OCCCCO)O1	/	i	0.83	/	/	16.0	91.1
CC(=O)Nc1cccc(C(=O)OCc2ccc(C(=O)Oc3ccc(Cl)cc3)cc2)c1	-1.1	i	0.92	34.3	63.3	1.8	90.7
Cc1ccc(NC(=O)CSc2nnc(-c3cccnc3)n2-c2ccc(C)cc2)cc1	-3.0	?	/	51.4	111.0	-10.7	107.4
CC(C)Cn1c(N)c(C(=O)COC(=O)c2ccncc2)c(=O)n(C)c1=O	-1.0	i	0.97	-11.1	44.1	15.3	105.7
Cc1cccc(C)c1NC1=NC(C)(C)N=C(N)N1	0.3	i	1.01	/	/	-0.2	102.0
Nc1ccc(C(=O)N/N=C\C=C\c2ccc([N+](=O)[O-])cc2)cc1	/	i	0.94	/	/	-4.6	101.1
COc1ccc([N+](=O)[O-])cc1NC(=O)CSc1nncn1-c1ccccc1	-0.3	i	0.96	/	/	1.1	99.5
O=C(Nc1cccn2ncnc12)C(F)(F)F	/	i	0.98	18.5	73.3	5.2	102.0
CCOC(=O)c1[nH]c2cc(OC)c(OC)cc2c1NC(=O)CCN1CCSCC1	/	i	0.95	/	/	/	9.8*
CCn1cc(CN2CCCC(C(=O)c3ccc(-c4ccccc4)c(F)c3)C2)cn1 (stereo not given)	/	i	0.71	/	/	/	100.6
Cc1ccc(NC(=O)c2ccc(NCc3ccc(F)cc3)nc2)cc1	/	i	1.07	/	/	-3.1	108.2
O=C(c1ccccc1)c1c[nH]c2cc3c(cc2c1=O)OCCO3	-1.6	i	0.89	-62.1	78.4	-1.7	84.7
Cc1onc(-c2c(Cl)cccc2Cl)c1C(=O)N1CCc2ccccc2C1	0.1	/	/	-69.4	33.8	-9.4	102.7
COC(=O)c1ccc(COc2ccccc2/C=N/NS(=O)(=O)c2ccccc2)cc1	-1.6	i	0.68	/	/	-1.3	101.5
Cc1cc(C)n(CC(=O)NCc2cc(-c3nn(C)c(=O)c4ccccc34)ccc2C)n1	0.7	i	1.02	-65.7	119.9	-4.9	104.1
OCCN(Cc1ccccc1)C(=S)NC1CCCCC1	/	i	1.15	-33.3	92.2	-2.9	101.9

Filtered by structure: those above containing an NH in an aromatic ring.
Structure	GALR2 ag	HSV replic up	HSV replic up primary fold	INS promoter inh	INS promoter inh cell count	PKD1 kinase inh	RGS16-Gao
O=C(N/N=C/c1c[nH]c2ccccc12)c1cc2ccccc2o1	/	i	0.81	/	/	/	101.7
CCOC(=O)c1[nH]c2cc(OC)c(OC)cc2c1NC(=O)CCN1CCSCC1	/	i	0.95	/	/	/	9.8*
O=C(c1ccccc1)c1c[nH]c2cc3c(cc2c1=O)OCCO3	-1.6	i	0.89	-62.1	78.4	-1.7	84.7

The listing continues.
Structure	GALR2 ag	HSV replic up	HSV replic up primary fold	INS promoter inh	INS promoter inh cell count	PKD1 kinase inh	RGS16-Gao
Cc1c(-n2cc(C(=O)c3ccccc3O)cc(C#N)c2=O)c(=O)n(-c2ccccc2)n1C	-0.3	/	/	16.7	186.6	16.9	148.1
CN1C(=O)CSc2ccc(NC(=O)NCc3ccco3)cc21	-1.0	i	0.94	17.4	90.8	-6.6	97.7
COc1ccc2[nH]c(=O)c(CN(C(=O)c3ccco3)C(C)C)cc2c1	/	i	0.81	/	/	/	104.4
COC(=O)c1ccc(COc2ccc(/C=C(\C#N)c3nc4ccccc4[nH]3)cc2OC)o1	-0.1	i	0.69	12.9	139.4	-11.5	100.7
COc1ccccc1C1NC(=O)NC(C)=C1C(=O)Nc1cccc(C)c1C (stereo not given)	-2.2	i	0.95	/	/	-0.4	101.1
Cc1ccc(CNC(=O)CC2C(=O)Nc3c2c(=O)n(C)c(=O)n3Cc2ccccc2)cc1 (stereo not given)	-2.4	i	1.06	-13.5	184.1	0.3	95.1
CCCNC(=O)c1onc(CSc2ccccn2)c1C(=O)NCCC	/	i	0.86	/	/	/	99.5
O=c1nc(N2CCCCC2)nc2n1CCO2	-2.3	i	0.83	-6.9	120.9	-4.0	97.8

Compound profiles, as listed above. Screens in order: GALR2 ag	HSV replic up	HSV replic up primary fold	INS promoter inh	INS promoter inh cell count	PKD1 kinase inh	RGS16-Gao
COC(=O)c1ccc(COc2ccc(/C=C(\C#N)c3nc4ccccc4[nH]3)cc2OC)o1 is listed with -0.1	i	0.69	12.9	139.4	-11.5	100.7
COc1ccccc1C1NC(=O)NC(C)=C1C(=O)Nc1cccc(C)c1C (stereo not given) is listed with -2.2	i	0.95	/	/	-0.4	101.1
Cc1c(-n2cc(C(=O)c3ccccc3O)cc(C#N)c2=O)c(=O)n(-c2ccccc2)n1C is listed with -0.3	/	/	16.7	186.6	16.9	148.1
COc1ccc2[nH]c(=O)c(CN(C(=O)c3ccco3)C(C)C)cc2c1 is listed with /	i	0.81	/	/	/	104.4
CCCNC(=O)c1onc(CSc2ccccn2)c1C(=O)NCCC is listed with /	i	0.86	/	/	/	99.5

(next part)
Structure	GALR2 ag	HSV replic up	HSV replic up primary fold	INS promoter inh	INS promoter inh cell count	PKD1 kinase inh	RGS16-Gao
COc1c(/C=N/Nc2ccc([N+](=O)[O-])cc2[N+](=O)[O-])c(C)nn1-c1ccccc1	-3.7	i	0.97	17.9	86.7	-3.9	98.8
Cc1csc(=Nc2cccnc2)n1Cc1ccco1	/	i	1.05	/	/	-5.4	98.2
O=C(c1ccco1)N1CCN(C(c2cccs2)c2nnnn2C2CCCCC2)CC1 (stereo not given)	-2.2	i	1.01	-12.5	143.9	-12.6	99.5
CCN1CCN(C(=O)c2ccc(OC)c(S(=O)(=O)Nc3ccc(C)cc3)c2)CC1	/	i	0.99	40.0	149.7	-0.9	108.7
CNC(=O)c1cc(Nc2nnc(-c3ccc(O)cc3)c3ccccc23)ccc1OC	/	i	0.88	/	/	-3.9	113.8
CN1CCN(CC(=O)Nc2ccccc2Oc2ccccc2)CC1	/	i	1.08	/	/	/	104.0
CCn1c(Cc2ccccc2)nnc1SCc1cccc(C(=O)O)c1	-2.4	i	0.93	40.5	64.6	-11.1	54.0
O=C(O)c1cccnc1SCc1cn2cc(Br)ccc2n1	/	i	1.02	33.3	74.3	1.2	97.4
CCOC(=O)N1CCN(C(=O)c2cc(-n3cnnc3)ccc2Cl)CC1	-4.7	i	1.18	13.8	104.7	2.7	99.3
Cn1c(C(=O)Nc2ccc3c(c2)OCO3)cc2c(=O)n(C)c3ccccc3c21	-1.9	i	1.07	/	/	-2.4	99.6
COC(=O)c1sc2nc(SCc3ccccc3C#N)n(N)c(=O)c2c1C	-0.4	i	0.92	51.9	111.8	2.6	101.7
O=C(N/N=C/c1ccc(N2CCOCC2)cc1)C1COc2ccccc2O1 (stereo not given)	/	i	0.84	/	/	-6.2	96.0
Cc1ccc(N2C(=O)SC(Cc3ccccc3)C2=O)cc1 (stereo not given)	/	i	1.03	/	/	/	91.1
COc1ccc(NC(=O)CCS(=O)(=O)c2cccc3nonc23)cc1	/	i	0.91	/	/	1.3	98.2
CCCC(=O)N1CCN(c2ccc(NC(=O)c3cccs3)cc2)CC1	/	i	0.97	40.0	105.5	1.9	94.8
O=C(COC(=O)Cn1c(C(F)(F)F)nc2ccccc21)Nc1ccc2c(c1)OCCO2	-0.6	i	0.91	27.6	70.7	-0.2	105.5
N#C/C(=C\c1cccnc1)C(=O)NC1CCCCC1	-2.5	i	0.63	-10.0	103.2	-14.1	95.4
CCn1c(=O)c(C(=O)CN2CCCc3ccccc32)c(N)n(Cc2ccccc2)c1=O	-1.9	i	1.04	-103.1	64.6	-2.2	103.8
CCC(C)C(=O)Nc1nc(-c2ccc3c(c2)NC(=O)CO3)cs1 (stereo not given)	-2.4	i	0.95	-48.6	97.9	1.6	102.1
Cn1cccc1CC(=O)N/N=C\c1ccccc1	/	i	1.01	/	/	-4.9	76.3
Cc1ccc2nc(N(CCCN(C)C)C(=O)CCc3ccccc3)sc2c1	2.2	i	0.83	-12.9	117.3	10.2	98.6
O=C(CCNC(=O)c1ccc(Br)o1)NCc1ccccc1Cl	-4.0	i	0.88	/	/	-10.8	130.0
O=C(Nc1cccnc1)c1cccc(NC(=O)c2ccco2)c1	-1.6	i	0.95	18.9	166.2	-9.3	96.9
COC(=O)C(C(=O)Nc1ccc(OC)cc1)C1CCCCCC1 (stereo not given)	-1.6	i	0.91	22.2	162.8	-3.9	137.5
Clc1ccc2c(N/N=C/c3ccc(Br)cc3)ccnc2c1	0.4	i	0.69	92.0*	98.1*	-13.6	101.3
COc1ccc(CC(=O)NCc2nnc(SCC(=O)Nc3ccccc3)n2C)cc1	/	i	1.14	/	/	9.7	99.0
c1ccc(OCc2nn3c(-c4ccncc4)nnc3s2)cc1	-0.5	i	0.91	-61.4	87.0	-5.9	21.6
CCOC(=O)c1nn(-c2ccc(Cl)cc2)cc1O	/	i	0.92	/	/	/	101.9
COc1ccc(CN(C(=O)Cn2nnc(-c3ccc(C)o3)n2)C(C(=O)NCC2CCCO2)c2ccco2)cc1 (stereo not given)	/	i	1.05	58.3	88.0	7.0	94.4
O=C(O)c1[nH]c2ccc([N+](=O)[O-])cc2c1-c1ccccc1	/	i	1.02	/	/	/	109.1
COC(=O)C1=C(C(=O)OC)[C@@H]2N(C)c3ccc(OC)cc3[C@@]23C[C@@H](C(=O)OC)N(S(=O)(=O)c2ccc(OC)cc2)C3=N1	/	i	0.75	/	/	/	100.1
COc1ccc(-c2n(CC(=O)OC3CC(C)CCC3C(C)C)c3ccccc3[n+]2C)cc1 (stereo not given)	/	i	0.6	-100.0	35.1	0.6	103.4
